High-throughput results from PubChem.
VDR inhibitor: blocks the human vitamin D receptor; P11473; VDR-SRC2-3 peptide fluorescence polarization, 2 h; Potency, µM, for inactives: max response, negative = inhibition, most hits filed as inhibitors; 400,000 compounds, 0.93% hits; AID 504847; active = well fitted inhibition curve with a large enough effect; inconclusive = small, poorly fitted or top-dose-only effect, or another doubt; inactive = no such curve, though single readings can be large or run the other way; also: series mostly up to about 120 µM
Target sequence (P11473 whole entry, looked up): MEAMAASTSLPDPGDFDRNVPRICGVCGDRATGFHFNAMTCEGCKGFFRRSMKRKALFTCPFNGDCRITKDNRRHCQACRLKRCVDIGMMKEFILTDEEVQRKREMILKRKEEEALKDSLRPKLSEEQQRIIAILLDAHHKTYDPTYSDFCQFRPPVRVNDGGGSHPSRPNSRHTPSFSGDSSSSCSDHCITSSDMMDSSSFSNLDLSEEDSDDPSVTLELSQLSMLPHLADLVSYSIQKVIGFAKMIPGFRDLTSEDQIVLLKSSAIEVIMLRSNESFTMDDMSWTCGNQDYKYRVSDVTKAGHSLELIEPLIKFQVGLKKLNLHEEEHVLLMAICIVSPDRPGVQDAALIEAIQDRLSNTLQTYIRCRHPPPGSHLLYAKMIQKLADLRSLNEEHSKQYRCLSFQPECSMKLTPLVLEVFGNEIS
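Fluorescence polarization assay measuring small-molecule disruption of VDR binding to the coregulator peptide SRC2-3. Compounds were pin-transferred (23 nl) into the reagent mix and incubated 2 h at room temperature before reading.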
Active calls of the source: *; u = inconclusive; & = joins results of further samples; [ ] = remark or other dose. % is scaled to controls: 0 for no effect and ±100 for the full control effect; potency is read from the fitted curve at half-maximal effect. Not all compounds are listed; count on the stated rates, not on these rows.

SMILES	VDR inhibitor
O=C(Nc1ccc(F)cc1)c1oc2ccccc2c1NC(=O)C1CC1	-4%
COc1ccc(CN(C)C(=O)COC(=O)c2c(-c3ccccc3Cl)noc2C)cc1	-4%
CN(CC(=O)O)S(=O)(=O)c1ccc2oc3ccccc3c2c1	-9%
CCc1ccc(S(=O)(=O)c2nnn(-c3ccc(F)cc3)c2N)cc1	-10%
CC1=C(C(=O)OCC(Cl)(Cl)Cl)N2C(=O)C(NC(=O)Cc3ccccc3)C2SC1 (centres undefined)	-10%
COc1cc(/C=N/NC(=O)c2cccc3ccccc23)cc(OC)c1O	-12%
COc1cccc(-c2cnc(NCc3ccccc3Cl)n2C)c1	3%
COc1cc(OC)cc(C(=O)NC(C)CCc2ccccc2)c1 (centres undefined)	-16%
CCOc1ccc(CN2CCN(Cc3cccc4nonc34)CC2CCO)cc1 (centres undefined)	-8%
COc1ccc(S(=O)(=O)N(C)c2ccc(C(=O)NC3CC3)cc2)cc1	-11%
C/C(=N\NC(=S)NCc1ccccc1)c1ccccc1	10%
COc1ccc2nc(SCC(=O)c3c(C)[nH]c4ccccc34)nc(C)c2c1	-15%
CSc1ccc(-c2sc(Nc3ccccc3)n[n+]2-c2ccc(F)cc2)cc1	-16%
Cc1ccc(S(=O)(=O)C(CNC(=O)C(=O)NCCc2ccc(F)cc2)c2cccs2)cc1 (centres undefined)	8%
O=C1CCCCC1(O)Cc1ccc2c(c1)OCO2 (centres undefined)	0%
COc1ccc(CNC(=O)Cn2c(=O)cc(-c3ccccc3)c3c(C)nn(C)c32)cc1	-3%
CCOC(=O)C1CCC2(CC1)C(C#N)=C(N)Oc1n[nH]c(C)c12 (centres undefined)	16%
CN(CC(=O)Nc1ccccc1Cl)C(=O)c1ccc(N2C(=O)CCC2=O)cc1	-6%
Cc1cccc(OCC(=O)Nc2ccc3nc(C)sc3c2)c1	0%
CCCCc1ccc(C(=O)c2c(N)c(C(=O)Nc3cccc(OC)c3)c3ccccn23)cc1	9%
COc1cccc(C(=O)Cn2c(NCCO)nc3ccccc32)c1	-5%
COc1ccc(-c2onc3ccc(C(=O)/C=C/N(C)C)cc23)cc1	-11%
COc1ccc(Cc2nc(-c3ccc(-n4cccc4)cc3)no2)cc1OC	2%
CCN(CC)C(=O)c1cn(CCC#N)nc1-c1ccc2c(c1)OCCO2	-14%
COc1cc(SC)ccc1C(=O)NCCCn1ccnc1	-5%

The list goes on:
SMILES	VDR inhibitor
CC(C)=CC1C(C(=O)Nc2ccc(S(=O)(=O)N3CCOCC3)cc2)C1(C)C (centres undefined)	-3%
O=C(O)[C@H]1C[C@@H](CP(=O)(O)O)CCN1	-21%&4%
COc1ccc(C2C(C(=O)Nc3ccccc3OC)=C(C)Nc3c(C(=O)Nc4ccccc4)cnn32)c(OC)c1 (centres undefined)	6%
COC(=O)c1ccccc1NC(=O)C1=C(C)C(=O)OC12CCCCCC2	5%
COc1ccc(COc2ccsc2C(=O)Nc2ccc(Cl)c(Cl)c2)cc1	2%
COC(=O)c1cc2oc(C)cc2n1CC(=O)Nc1cc(C)cc(C)c1	25%
CCc1ccc[n+](-c2nc3ccccc3nc2C(=C=[N-])C#N)c1	14%
O=C(c1c[nH]c2ccccc12)N1CCOCC1	8%
C=C(C)C1CCC(C)=C1CC(C)(C)/C=N\n1cnnc1 (centres undefined)	4%
CCC(C(=O)Nc1cccc(-c2nc3cccnc3s2)c1C)c1ccccc1 (centres undefined)	-5%
O=C(CN1CCOCCOCCOCCOCC1)Nc1ccccc1	-3%
Cc1ccc(C)c(OCC(=O)Nc2ccc(S(=O)(=O)Nc3onc(C)c3C)cc2)c1	15%
CN(CCCNC(=O)C1CCN(S(=O)(=O)N2CCC3(CC2)OCCO3)CC1)Cc1ccccc1	-4%
COc1cccc2cc(-c3nnc(-c4ccc(Cl)cc4)o3)c(=O)oc12	8%
Cc1cnc(=O)[nH]c1SCc1ccccc1F	-9%
Cc1ccc2c(cnn2C(=O)CCCC(=O)NCc2ccc(F)cc2)c1	-5%
COc1ccc(C)cc1NC(=O)CCc1c(C)nn(-c2ccc(N3CCOCC3)nn2)c1C	4%
CCOC(=O)c1c(C)[nH]c(C(=O)C(C)Sc2ccc(Cl)cc2)c1C (centres undefined)	-7%
COc1ccc(-c2ccccc2C2C3C=CCCC3(C)C(=O)N2Cc2ccccc2)cc1 (centres undefined)	79µM*
CC(C)C(=O)Nc1nnc(SCC(=O)NC2CCCC2)s1	-22%
CC(=O)C1=C(O)C(=O)N(c2nccs2)C1c1ccc(Br)cc1 (centres undefined)	-11%
O=C(Nc1cccc(-c2nc3ccccc3s2)c1)C1=COCCO1	0%
O=C(NCc1ccccc1Cl)c1cc2cccc3c2n1CCS3	15%
Cn1c(=O)n(Cc2ccccc2)c(=O)c2c1nc(NCC1CCCO1)n2Cc1ccccc1 (centres undefined)	-9%
CCn1c(=S)sc2c(=O)[nH]c(SCC(=O)Nc3cc(OC)ccc3OC)nc21	-2%

(more compounds)
SMILES	VDR inhibitor
O=C(NCCO)C1(c2ccccc2)CCCC1	-4%
Cc1nn(-c2ccccc2)c2c1CC(=O)Nc1ccccc1-2	-1%
O=C(CN1C(=O)CCC1=O)NC(=O)NC1CCCC1	10%
O=c1c2ccccc2c2ccccc2c(=O)n1Cc1ccco1	2%
Cc1ccc(C)c(N2N=C(C(=O)Nc3ccc(N4CCOCC4)cc3)CCC2=O)c1	12%
COc1ccc(CNC(=O)CSc2ncc(S(=O)(=O)c3ccc(C)c(Cl)c3)c(=O)[nH]2)cc1	18%
CCCCC1CCC(C(=O)N2CC(=O)Nc3ccc(C)cc3C2c2ccc(F)cc2)CC1 (centres undefined)	9%
CC1CCN(C2CC(=O)N(c3ccc(Br)cc3Br)C2=O)CC1 (centres undefined)	15%
CN(C)CCCN1C(=O)c2oc3ccccc3c(=O)c2C1c1cccs1 (centres undefined)	1%
CCOc1cccc(CN2CCC(Oc3ccc(C(=O)NCc4ccccn4)cc3)CC2)c1	5%
NS(=O)(=O)c1ccc(CCNC(=O)CN2C(=O)NC(c3ccccc3)(c3ccccc3)C2=O)cc1	u
COCC(=O)Nc1nnc(Cc2ccc(OC)cc2)s1	3%
c1cncc(CNc2ncnc3sc4c(c23)CCCC4)c1	6%
CCOCC(=O)Nc1nc(-c2ccccc2)c(CC)s1	10%
Cc1ccc(O)c([C@H](CCN(C(C)C)C(C)C)c2ccccc2)c1	-6%&5%&-5%
COC(=O)COc1cccc(NC(=O)c2cccc(C)c2)c1	8%
C/C(=N\NC(=O)C1CC1)c1ccccc1Br	12%
Cc1ccc(CN2C(=O)CSC2c2ccc(F)cc2)cc1 (centres undefined)	-19%
COc1ccc(N(CC(=O)NCc2ccco2)S(=O)(=O)c2c(C)nn(C)c2C)cc1	-15%
NC(=O)c1ccc[n+]([C@H]2O[C@@H](COP(=O)([O-])OP(=O)(O)OC[C@H]3O[C@@H](n4cnc5c(N)ncnc54)[C@H](O)[C@@H]3O)[C@H](O)[C@@H]2O)c1	u
CCc1cc2c(=O)oc(-c3ccc(Br)cc3)nc2s1	-7%
Cc1nn(-c2ccccc2)c(N2CCCC2)c1/C=N/Nc1ccc(S(=O)(=O)Nc2ccccc2)cc1[N+](=O)[O-]	2%
COc1ccc(CCNC(=O)c2cnc3sc(N4CCOCC4)nn3c2=O)cc1OC	13%
CN1C(=O)CSc2ccc(NC(=O)NCc3cccnc3)cc21	6%
CC1CCC2(CC1)NC(=O)N(CC(=O)NCCc1c[nH]c3ccccc13)C2=O (centres undefined)	-19%

Continuation:
SMILES	VDR inhibitor
Cc1ccc(OCC(=O)Nc2ccc3c(c2)OC(F)(F)O3)c([N+](=O)[O-])n1	-5%
CCSc1nc2cc(S(=O)(=O)N3CCOCC3)ccc2o1	25µM*
CC1CCC(NC(=O)C2CCN(c3c4c(nc5ncnn35)CCC4)CC2)CC1 (centres undefined)	5%
COc1cccc(CSc2nc(-c3ccccc3F)nc3c2Cc2c(CO)cnc(C)c2O3)c1	-3%
COc1ccc(Cl)cc1NC(=O)CN(C)C(=O)c1cc2c(s1)CCC(C)C2 (centres undefined)	-3%
COC(=O)Nc1cccn(Cc2c(Cl)cccc2Cl)c1=O	-6%
COc1ccc(N2CCN(C(=O)c3ccc(COc4ccc5c(C)cc(=O)oc5c4)cc3)CC2)cc1	-12%
COc1ccc(Cc2nc3ccc(C(=O)N4CCC[C@H]4CO)cc3o2)cc1	14%
O=C(Nc1sc2c(c1C(=O)c1ccccc1)CCCC2)c1cccnc1	u
Cc1ccc2c(C)c(C(=O)N3CCC(c4nc5ccccc5s4)CC3)oc2c1C	11%
Cc1ccc(C(=O)NNC(=S)NC(=O)COc2ccccc2)cc1	-7%
CCOc1ccc(/C=N/NC(=O)C2CCCC2)c(OCC)c1	4%
CCCN(CC(=O)Nc1ccccc1C)C(=O)c1ccc(-c2ccc(C(C)=O)cc2)o1	-14%
CCOc1ccccc1NC(=O)C1=C(C)Nc2ncnn2C1c1ccccn1 (centres undefined)	-6%
COc1ccc(/C=N/N(Cc2ccccc2)c2ccccc2)cc1O	u
Cc1ccc(CNS(=O)(=O)c2cnc(N)nc2)cc1	-3%
Cc1cc(C)c(NC(=O)CN2CCN(c3ccccn3)CC2)c(C)c1	4%
CSC1=NCCN1C(=O)Cc1cccs1	13%
CC1CCC2(CC1)C(Nc1cccc(Cl)c1)=NC(=S)N2CC#N (centres undefined)	1%
CCCc1c(C)[nH]c2ccc(C(=O)O)cc2c1=S	-27%
CC(C)NC(=O)CSc1ncccc1-c1nc2ccccc2[nH]1	2%
COc1ccc(OC)c(CC(=O)Nc2cc(S(=O)(=O)N3CCCCC3)ccc2C)c1	24%
Cc1nnc(SCCCN2C(=O)c3ccccc3C2=O)o1	-6%
CCOC(=O)c1ccc(NC(=O)N2CCOc3ccccc32)cc1	16%
CC(=O)c1cccc(NC(=O)c2sc3nc4c(cc3c2N)CCCC4)c1	-1%

(further entries)
SMILES	VDR inhibitor
CCOC(=O)C1=CN(Cc2ccco2)S(=O)(=O)N(C)C1CC (centres undefined)	-25%
CCSc1nnc(NC(=O)c2cccnc2Cl)s1	12%
O=C(c1cc2ccccc2o1)c1nc2c(n1O)CCCCC2	-9%
COc1ccc(-c2c(C#N)c(N)nc3sc(C(=O)c4ccc(C)cc4)c(N)c23)cc1	6%
O=C(N/N=C/c1cccnc1)c1[nH]ncc1Br	-7%
CC(=O)N1c2c(cc(Br)cc2S(=O)(=O)N2CCN(c3ccccc3)CC2)CC1C (centres undefined)	5%
CC(C)NCC(O)COC1C2CC3CC(C2)CC1C3 (centres undefined)	-3%
Cc1cc(S(=O)(=O)NCCCN2CCOCC2)c(C)cc1Cl	-12%
CN(CCCC1CCCC1)C(=O)c1cc(COc2ccc(F)c(F)c2)on1	-7%
COc1ccc(CNC(=O)C(=O)NCC2OCCN2S(=O)(=O)c2ccc(F)cc2)cc1 (centres undefined)	-18%
CCN(CC)S(=O)(=O)c1cc(C(=O)n2cccn2)c(Cl)cc1Cl	33%[activator]
CCN(Cc1ccc(O)cc1)CC1CCCN(CCc2cccc(F)c2)C1 (centres undefined)	-5%
CCN1CCCC1CNC(=O)C1c2ccccc2C(=O)N(CCOC)C1c1ccc(F)cc1 (centres undefined)	-2%
CC(=O)c1ccc(S(=O)(=O)NC2CC(=O)N(c3ccc4c(c3)OCCO4)C2)cc1 (centres undefined)	-5%
O=C(c1ccncc1)N1CCN(S(=O)(=O)c2ccccc2Br)CC1	8%
CC(Oc1ccccc1)C(=O)Nc1ccc(S(=O)(=O)Nc2nccs2)cc1 (centres undefined)	23%
COc1ccccc1N1CCN(C(=O)c2c(C)oc3ncn(C)c(=O)c23)CC1	0%
COc1cccc(N=CC=C2OC(C)(C)C(C)(C)O2)c1	19%
CN(CC(=O)Nc1ccc(S(=O)(=O)N2CCCC2)cc1)CC(=O)Nc1ccc(F)c(F)c1F	-7%
CN(C(=O)Nc1cn(C)c(=O)c2ccccc12)c1ccccc1	2%
O=C1CCCc2nc(N3CCN(C(c4ccccc4)c4ccccc4)CC3)ncc21	2%
O=c1cc(N2CCCCC2)c(-c2ccccc2)nn1Cc1ccc(Cl)cc1Cl	-4%
O=C(COc1ncnc2ccccc12)NC1CCS(=O)(=O)C1 (centres undefined)	14%
COc1ccc(Cl)cc1NC(=O)CCC(=O)c1ccc(C)cc1	21%
CCCn1c(SCC(=O)N2CCN(S(=O)(=O)c3ccc(Cl)cc3)CC2)n[nH]c1=O	-16%
Cc1ccc(/C=C(\NC(=O)c2ccc(C)cc2)c2nc(=S)[nH][nH]2)cc1	-6%

Filtered by structure, those above with fluorine
SMILES	VDR inhibitor
O=C(Nc1ccc(F)cc1)c1oc2ccccc2c1NC(=O)C1CC1	-4%
CCc1ccc(S(=O)(=O)c2nnn(-c3ccc(F)cc3)c2N)cc1	-10%
CSc1ccc(-c2sc(Nc3ccccc3)n[n+]2-c2ccc(F)cc2)cc1	-16%
Cc1ccc(S(=O)(=O)C(CNC(=O)C(=O)NCCc2ccc(F)cc2)c2cccs2)cc1 (centres undefined)	8%
Cc1cnc(=O)[nH]c1SCc1ccccc1F	-9%
Cc1ccc2c(cnn2C(=O)CCCC(=O)NCc2ccc(F)cc2)c1	-5%
CCCCC1CCC(C(=O)N2CC(=O)Nc3ccc(C)cc3C2c2ccc(F)cc2)CC1 (centres undefined)	9%
Cc1ccc(CN2C(=O)CSC2c2ccc(F)cc2)cc1 (centres undefined)	-19%
Cc1ccc(OCC(=O)Nc2ccc3c(c2)OC(F)(F)O3)c([N+](=O)[O-])n1	-5%
COc1cccc(CSc2nc(-c3ccccc3F)nc3c2Cc2c(CO)cnc(C)c2O3)c1	-3%
CN(CCCC1CCCC1)C(=O)c1cc(COc2ccc(F)c(F)c2)on1	-7%
COc1ccc(CNC(=O)C(=O)NCC2OCCN2S(=O)(=O)c2ccc(F)cc2)cc1 (centres undefined)	-18%
CCN(Cc1ccc(O)cc1)CC1CCCN(CCc2cccc(F)c2)C1 (centres undefined)	-5%
CCN1CCCC1CNC(=O)C1c2ccccc2C(=O)N(CCOC)C1c1ccc(F)cc1 (centres undefined)	-2%
CN(CC(=O)Nc1ccc(S(=O)(=O)N2CCCC2)cc1)CC(=O)Nc1ccc(F)c(F)c1F	-7%
